Bioassay records (PubChem)
NPR1 antag: Natriuretic polypeptide receptor (hNpr1) antagonism - Primary qHTS | Atrial natriuretic peptide receptor 1 (Homo sapiens), P16066 | HEK293 hNpr1 GloSensor cGMP, ANP-stimulated luminescence | Potency, µM (doses to about 46.3 µM), for the others: at the top dose activity change, negative = inhibition, actives largely listed as inhibitors | 1.6% of 76,000 active | AID 1347048, 2019; active = well fitted inhibition curve with a large enough effect; inconclusive = small, poorly fitted or top-dose-only effect; inactive = no such curve, though single readings can be large or run the other way;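 note: nearly all actives have a fitted effect of over 60% in size; nearly all hits also lower the signal before the agonist is added; a reference antagonist and vehicle were the controls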
Target sequence (P16066 whole entry, looked up): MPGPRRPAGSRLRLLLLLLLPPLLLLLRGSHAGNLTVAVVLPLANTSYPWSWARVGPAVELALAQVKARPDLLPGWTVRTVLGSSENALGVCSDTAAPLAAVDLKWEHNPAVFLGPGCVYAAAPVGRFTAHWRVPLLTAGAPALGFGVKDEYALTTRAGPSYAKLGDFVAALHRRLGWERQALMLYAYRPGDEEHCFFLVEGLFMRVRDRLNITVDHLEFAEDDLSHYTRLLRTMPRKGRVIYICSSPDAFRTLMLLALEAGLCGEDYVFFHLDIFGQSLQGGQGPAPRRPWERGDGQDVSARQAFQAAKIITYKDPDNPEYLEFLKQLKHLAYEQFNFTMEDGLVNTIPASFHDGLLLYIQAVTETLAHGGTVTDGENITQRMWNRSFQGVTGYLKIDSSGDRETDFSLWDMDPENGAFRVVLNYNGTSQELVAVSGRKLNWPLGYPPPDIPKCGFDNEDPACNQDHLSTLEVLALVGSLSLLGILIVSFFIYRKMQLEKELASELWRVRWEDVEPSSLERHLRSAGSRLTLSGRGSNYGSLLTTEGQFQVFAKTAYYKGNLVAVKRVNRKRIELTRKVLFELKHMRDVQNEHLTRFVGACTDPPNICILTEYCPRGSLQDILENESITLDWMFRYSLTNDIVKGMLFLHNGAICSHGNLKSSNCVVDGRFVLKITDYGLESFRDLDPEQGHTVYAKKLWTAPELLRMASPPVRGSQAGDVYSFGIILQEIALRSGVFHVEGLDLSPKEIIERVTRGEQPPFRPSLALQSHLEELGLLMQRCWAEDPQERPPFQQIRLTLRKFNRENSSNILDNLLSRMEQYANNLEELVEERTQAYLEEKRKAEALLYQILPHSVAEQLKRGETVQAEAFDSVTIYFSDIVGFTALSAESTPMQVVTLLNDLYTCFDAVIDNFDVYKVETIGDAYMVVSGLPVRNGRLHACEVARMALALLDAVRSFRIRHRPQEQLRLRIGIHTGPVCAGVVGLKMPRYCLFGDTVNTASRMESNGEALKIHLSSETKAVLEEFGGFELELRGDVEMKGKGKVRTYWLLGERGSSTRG
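HEK293 cells stably expressing human Npr1 and cGMP GloSensor pGS-40F, loaded 2 h with 2% GloSensor reagent, given compound 30 min at room temperature. Luminescence read before and 20 min after 0.1 nM hNppA.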
* hit, by the source's call; ? = inconclusive; [ ] = remark or other dose. % is set by controls: 0 for no effect and ±100 for the full control effect; potency is the fitted concentration of half-maximal effect.

SMILES	NPR1 antag
O=C(NCc1cc(F)ccc1F)C1CCc2sc(C(=O)N3CCOCC3)cc2C1 (centres undefined)	-3%
CC(C)NC(=O)N[C@H]1C[C@H]2C(=O)NC[C@@H](CCC(=O)N3CCN(C)CC3)N2C1	4%[70.6 µM]
Cc1c(C(=O)N2CCOCC(CO)C2)n(C)c2c(C)cccc12 (centres undefined)	2%
Cc1ccc(C2c3cc(OCc4nc(C(=O)NC5CC5)co4)ccc3CCN2C(=O)C2CC2)cc1 (centres undefined)	-24%
COC(=O)c1ccccc1NC(=O)N1CCCC(Nc2ccc(OC)cc2)C1 (centres undefined)	-25%
CC(=O)N1CCC(C2CCN(C(C)=O)C2)CC1 (centres undefined)	3%
O=C(NCc1ccc(Cl)cc1)[C@@H]1Cc2nc[nH]c2CN1Cc1ccc(CO)o1	1%[70.6 µM]
Cc1cc2cccc(C(=O)N3CCn4nc(C(O)C5CC5)cc4C3)c2o1 (centres undefined)	0%
COc1ccc(-c2nc3c(c(=O)[nH]2)CCN(C(=O)COc2ccccc2C)C3)cc1	0%
CN1CCc2c([nH]c3ccccc23)C12CCN(C(=O)c1nccc3ccccc13)CC2	-1%
COCCC(=O)N1CCCCCNC(=O)[C@@H]2CCCC[C@@H]21	1%
CN1CCCCC(CC(=O)NCc2cccc(Cl)c2)C1=O (centres undefined)	-4%
CCN(CC)C(=O)N1CCCC(Cc2nncn2C(C)C)C1 (centres undefined)	1%
O=C(NCCn1ccn2nc(-c3ccc(F)cc3)cc2c1=O)c1ccoc1	-13%
O=C1NCCCN1C1CCN(Cc2cccc(OC(F)(F)F)c2)CC1	9%[70.6 µM]
O=C(O)C[C@@H]1CCN(C(=O)C2CCC2)C[C@@H]1CCN1CCN(c2ccc(F)cc2)CC1	1%[70.6 µM]
CC(C)Cc1nc(CN(C)C(=O)c2cccc(CCC(C)(C)O)c2)no1	-1%
CNC(=O)[C@@H]1CN(Cc2cnn(C)c2)C[C@H]1COC	-13%
CCN1C(=O)C2CC3(CCN(Cc4ccc(F)c(F)c4)CC3)CN2C1=O (centres undefined)	-11%
COCC1CN(C(C)=O)CC12CCN(S(=O)(=O)c1cccc(OC)c1)CC2 (centres undefined)	-3%
COc1ccccc1-c1ccnc(N[C@H]2CO[C@H]3[C@@H]2OC[C@@H]3NS(=O)(=O)c2ccc3ccccc3c2)n1	?
Cn1cncc1C(=O)N1CCC2(CC1)CNC(C(=O)O)C2 (centres undefined)	10%
Cc1ccc(CN2C(=O)COC[C@H]2C(=O)Nc2ccc(C)c(F)c2)cc1	-15%
COc1cc(CN2CCN(c3noc(C(C)C)n3)CC2CCO)cc(OC)c1 (centres undefined)	-4%
O=C(Cc1ccc(Oc2ccccc2)cc1)N1CC(COc2ccccc2)C2(C1)CN(C(=O)c1cn[nH]c1)C2 (centres undefined)	-1%
CC(=O)N1CCCC2(C1)CN(C)c1ccc(C(=O)NC3CC3)cc12 (centres undefined)	5%[70.6 µM]
CCn1nccc1C(=O)N1CCCC(c2nnc(CN3CCCC3)n2C)C1 (centres undefined)	0%
CSc1cccc(NC(=O)Cn2ccn3nc4c(c3c2=O)CCCC4)c1	-1%
CC(C)CCN1CCC2(COc3ccccc3C(=O)N2)C1 (centres undefined)	-3%[70.6 µM]
CCc1nc(-c2c3n(c(=O)n(CC(=O)Nc4c(C)cccc4C)c2=O)CCCCC3)no1	0%
CC(=O)NCC(=O)N1CCCC(C(=O)Nc2cccc(-c3ccc(F)cc3)c2)C1 (centres undefined)	-9%
O=C(c1cn(CCc2ccccc2)nn1)N1CCC(OCc2ccccn2)CC1	-2%
O=C(c1noc(-c2ccc(F)cc2)n1)N1CCN(c2ccccc2)CC1	-7%
COc1ccc(C2Cn3cnc(C(=O)N4CCC(C(=O)NC5CCCCC5)CC4)c3CO2)cc1 (centres undefined)	1%
Cc1nc2c(c(N3CCCC(COc4cccc(F)c4)C3)n1)CCNCC2 (centres undefined)	-5%
Cc1ccccc1-c1[nH]nc2ncc(-c3ccc(F)cc3)nc12	-15%[70.6 µM]
Fc1ccccc1-c1noc(N2CCCCC2)n1	10µM*
O=C(NC1CCCCC1)C1CN(C(=O)c2ccc(F)cc2)CC12CCOCC2 (centres undefined)	2%
CN(CC(=O)N1CCc2nc3cc(-c4ccccc4)[nH]n3c(=O)c2C1)S(=O)(=O)c1cccs1	-6%
COCCCNC(=O)C(C)(C)Oc1nn(Cc2cccnc2)c2ccc(COC)cc12	4%[70.6 µM]
O=C(N1CCN(c2ncncn2)CC1)N(c1ccccc1)c1ccccc1	-23%
O=C(c1ccccc1F)N1CCC(c2nn(-c3ccccc3)c(=O)[nH]2)CC1	0%
COc1ccc(-c2noc(CC3CCN(C(=O)Cc4ccc(OC)c(OC)c4)CC3)n2)cc1	2.8µM*
CC(C)c1cc(C(=O)N2CC[C@H](CO)[C@H](O)C2)cs1	0%
COc1cccc(CNC(=O)Cn2ccn3nc4c(c3c2=O)CCCC4)c1	3%
CCC(=O)N1CCC2(CC1)C(OC)CN2c1ccc(C)cc1 (centres undefined)	1%
O=C1c2cnc(-c3cc(F)cc(F)c3)nc2OCCN1Cc1ccccc1	-8%[70.6 µM]
CCOc1ccc(CC(=O)N2CCN(c3cc(-c4cccs4)[nH]n3)CC2)cc1OCC	-1%

Four of the compounds above, as a markdown table.
| Structure | NPR1 antag |
| --- | --- |
| COc1cccc(CNC(=O)Cn2ccn3nc4c(c3c2=O)CCCC4)c1 | 3% |
| CCC(=O)N1CCC2(CC1)C(OC)CN2c1ccc(C)cc1 (centres undefined) | 1% |
| O=C1c2cnc(-c3cc(F)cc(F)c3)nc2OCCN1Cc1ccccc1 | -8%[70.6 µM] |
| CCOc1ccc(CC(=O)N2CCN(c3cc(-c4cccs4)[nH]n3)CC2)cc1OCC | -1% |

The listing picks up, starting 7 compounds before the break.
SMILES	NPR1 antag
O=C(c1ccccc1F)N1CCC(c2nn(-c3ccccc3)c(=O)[nH]2)CC1	0%
COc1ccc(-c2noc(CC3CCN(C(=O)Cc4ccc(OC)c(OC)c4)CC3)n2)cc1	2.8µM*
CC(C)c1cc(C(=O)N2CC[C@H](CO)[C@H](O)C2)cs1	0%
COc1cccc(CNC(=O)Cn2ccn3nc4c(c3c2=O)CCCC4)c1	3%
CCC(=O)N1CCC2(CC1)C(OC)CN2c1ccc(C)cc1 (centres undefined)	1%
O=C1c2cnc(-c3cc(F)cc(F)c3)nc2OCCN1Cc1ccccc1	-8%[70.6 µM]
CCOc1ccc(CC(=O)N2CCN(c3cc(-c4cccs4)[nH]n3)CC2)cc1OCC	-1%
COc1cccc(CN2CCCn3nc(C)c(-c4cnccc4C)c32)c1	?
COCc1cccc(-c2n[nH]c3c2CC(=O)N(CCOc2ccccc2)C3)c1	-20%[70.6 µM]
COCCN1Cc2nc(-c3cccc(NC(C)=O)c3)ccc2OCC1=O	4%[70.6 µM]
O=C(Cc1ccc(Cl)cc1)N1CCN(c2cc(-c3cccs3)[nH]n2)CC1	-4%
O=C(CN1C(=O)NC2(CCCCC2)C1=O)Nc1ccccc1Cl	0%
O=C(NCCc1c[nH]c2ccc(F)cc12)C1CC(=O)N(c2n[nH]c3ccccc23)C1 (centres undefined)	-12%
COc1ccc(C(=O)N2c3ccccc3CC2c2nc(C(C)C)no2)c(OC)c1 (centres undefined)	-1%
Cc1[nH]nc2c1C(c1c(F)cccc1F)C(C#N)=C(N)O2 (centres undefined)	4%
COCCOC1CCN(C(=O)c2cn[nH]c2-c2ccc(F)cc2)CC1	6%
COCCC1(NS(C)(=O)=O)CCN(C(=O)c2ccc(C#N)cc2)CC1	2%
Cc1ccc(-c2cc(N3CCCN(C(=O)c4cccnc4)CC3)n[nH]2)cc1C	-2%
O=C(NCCc1ccccc1)C1CCN(C(=O)[C@H]2CCC[C@@H](O)C2)CC1	4%
Cn1cc(CN2CCc3c([nH]n(CCO)c3=O)C2)c(-c2ccccc2)n1	9%
Cn1nc(C(=O)NCC23CCC=C2N(CC2CC2)C(=O)CC3)c2ccccc21 (centres undefined)	-1%
C#CCNC(=O)[C@H]1O[C@H](CCN2CCOCC2)CC[C@@H]1O	-1%[70.6 µM]
CC(C)(O)CCc1cccc(C(=O)NCCCc2ccccn2)c1	1%
CNC(=O)[C@@H]1CN(C(=O)c2cncc(Br)c2)C[C@H]1CO	-2%
c1cc(-c2nc(C3CCOCC3)nn2CC2COCCO2)[nH]n1 (centres undefined)	0%
COc1ccc(-c2nc3c(c(-c4ccccc4)n2)CN(C(=O)c2cccc(Cl)c2)CC3)cc1	6%
CSc1ccc(C(=O)N2C[C@@H](CN3CCN(C)CC3)[C@@H](CO)C2)cc1	-1%
COc1ccc(Cn2c(C3CCN(C(=O)c4ccc(OC)c(F)c4)CC3)n[nH]c2=O)cc1	3%
Cc1cc(Cn2cc3c4c(cccc42)[C@H](CC(C)C)N[C@H](C(=O)NCC2CC2)C3)no1	-6%[70.6 µM]
COc1ccc(S(=O)(=O)N2C[C@H](F)C[C@@H]2C(=O)N2CCOCC2)cc1Cl	-1%
CN(C)C[C@@H]1CN(C2CCOCC2)C[C@H]1NC(=O)Cc1ccccc1Cl	0%
CNC(=O)[C@@H]1CN(S(=O)(=O)c2cn(C)cn2)C[C@H]1COC	-1%
CS(=O)(=O)N1CCCC1c1noc(CCC(=O)NC2CC2)n1 (centres undefined)	-2%
CC(=O)c1cc(C(=O)N2C[C@@H](CN3CCCN(C)CC3)[C@@H](CO)C2)cs1	-2%
CN1CCC(CNc2nccc(C3(c4ccccc4Cl)CCNCC3)n2)C1 (centres undefined)	-4%
CCN1C(=O)CCN(C(=O)c2ccc3cc[nH]c3c2)CC12CCOCC2	0%
CCOCCn1cc(C2CCN(S(=O)(=O)c3c(C)cc(C)cc3C)CC2)c2ccccc21	1%
O=C(NCCn1ccnc1)c1ccc(OC2CCN(CCc3ccccc3)CC2)cc1	4%
Cn1nc2n(c1=O)CCN(C(=O)C1(c3ccccc3)CCCC1)CC2	2%
COc1cccc([S+](=O)([O-])N2CCC3(Cc4ccccc4NC3=O)C2)c1 (centres undefined)	-4%
O=C(Cc1ccc(F)cc1)N(CC1CCN(Cc2ccccc2F)CC1)CC1CCCO1 (centres undefined)	0%
O=C(NC1CCN(c2cc(-c3ccc(F)cc3)[nH]n2)C1)c1ccncc1 (centres undefined)	-8%
COCC(=O)N[C@@H]1CN(C(=O)Nc2ccccc2F)CC[C@@H]1c1nc(C)no1	3%
O=C(c1nc(-c2ccc(F)cc2)c2cnccn12)N1CCN(c2ncccn2)CC1	-18%
CCCOc1nccnc1NC1CCN(C(=O)c2ccncc2)CC1	2%
Cc1ccccc1C(=O)N(C)Cc1ccccc1C(F)(F)F	2%[70.6 µM]
C[S+](=O)([O-])N1CCn2c(nn(-c3ccncc3)c2=O)C1	9%[70.6 µM]
CCn1cc(CN2CCC(Oc3ccc4ccccc4c3)(C(=O)O)CC2)c(C)n1	2%
COc1ccc(-c2cc(N3CCCC(NC(=O)c4cccc(OC)c4)C3)n[nH]2)cc1 (centres undefined)	-25%
CN1CCC(NC[C@H]2COCc3nc4cccnc4n32)CC1	0%[70.6 µM]
Cc1ccc(N2Cc3c(NC4CCCC4)ncnc3N(C)CC2=O)cc1	8%
c1cncc(CN2CCc3c(sc4ncnc(N5CCOCC5)c34)C2)c1	-4%
COc1ccc(C(=O)N2CCC[C@H]2c2nc(-c3ccc(OC)c(OC)c3)no2)c(C)c1	2%
CCc1noc(-c2ccn3c(CNC(=O)c4ccccn4)nnc3c2)n1	0%
O=C1CCN(S(=O)(=O)c2ccccc2)CCCN(C(=O)Nc2ccccc2F)CCN1	-4%
CN1CCC(NC(=O)C2(C)CN(C)Cc3ccc(Nc4ccccc4)nc32)CC1 (centres undefined)	1%[70.6 µM]
CCN(CC)C(=O)CC[C@@H]1CNC(=O)[C@@H]2C[C@H](N)CN12	2%[70.6 µM]
Cc1cc(=O)n(CC(=O)Nc2ccc(Br)cc2)c(N2CCC(C)CC2)n1	?
COCC(=O)N1CCc2nc(N(C)CCc3ccncc3)[nH]c(=O)c2CC1	1%
COCCOC1CN(C2CCN(Cc3ccc(F)c(F)c3)CC2)C12CCCCC2 (centres undefined)	-1%
CN1CCCN(S(=O)(=O)c2ccc(Cl)s2)c2ccccc21	-27%
COc1ccc(C2Cn3nnc(-c4nc(-c5ccc(F)c(F)c5)no4)c3CO2)cc1 (centres undefined)	-2%
CC(C(=O)N1CCC(C(=O)N2CCCCCCNC(=O)CC2)CC1)c1ccccc1 (centres undefined)	5%
O=C(CCN1CCn2nc(CO)cc2C1)Nc1nnc(C2CC2)s1	-1%
COC(=O)CNC(=O)NCCc1ncc(C)n1C1CCCCCC1	-13%
COC(=O)CC[C@H]1CNC(=O)[C@@H]2[C@@H](CCN2Cc2ccc(C(F)(F)F)cc2)N1C	-2%[70.6 µM]
O=C(c1cc2ccccc2[nH]1)N1CCC2(CC1)CN(c1ncccn1)CC2CO (centres undefined)	-12%

Later entries:
SMILES	NPR1 antag
CCn1nccc1C(=O)N1C[C@@H]2CCCN3CCC[C@@H]([C@H]23)[C@H]1CCCC(=O)N1CCOCC1	4%
O=C(N[C@@H]1CN(C2CCC2)C[C@H]1CO)c1cnccn1	-3%
CC(C)CCNC(=O)N1CCC(Oc2ncccc2C(=O)N2CCCCC2)C1 (centres undefined)	3%
COc1ccc(NC(=O)c2ccc3c(c2)OCCN(C2CCC2)C3)cn1	-3%[70.6 µM]
COc1cc2c(cc1OC)C(C[C@H]1CN(C(=O)c3cccnc3)CC[C@H]1CC(=O)O)=NCC2	-3%
CN(C)c1cccc(C(=O)N2CCC3(CC2)NC(=O)N(Cc2ccc(F)cc2)C3=O)c1	-21%
COc1ccc([C@H](C)NC(=O)c2c(C)noc2-c2ccc(OC(F)(F)F)cc2)cc1	-7%

Some of the compounds tested; the hit share may differ from the screen's.
